PABP FP inh: blocks human PABP binding to poly(A) RNA. 290,000 tested, 1% active. inhibition, % at 35 µM. fluorescence polarization;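 active = 50% or more with normal probe brightness, or confirmed in later tests; about a fifth of its hits are not listed in these tables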;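 also: calls also rest on retests at 20 µM and on dose response follow-up; controls were probe without protein and protein plus probe with vehicle; some compounds called inactive have numbers as strong as hits; many hits fall short of the cut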
Target sequence (P11940 whole entry, looked up): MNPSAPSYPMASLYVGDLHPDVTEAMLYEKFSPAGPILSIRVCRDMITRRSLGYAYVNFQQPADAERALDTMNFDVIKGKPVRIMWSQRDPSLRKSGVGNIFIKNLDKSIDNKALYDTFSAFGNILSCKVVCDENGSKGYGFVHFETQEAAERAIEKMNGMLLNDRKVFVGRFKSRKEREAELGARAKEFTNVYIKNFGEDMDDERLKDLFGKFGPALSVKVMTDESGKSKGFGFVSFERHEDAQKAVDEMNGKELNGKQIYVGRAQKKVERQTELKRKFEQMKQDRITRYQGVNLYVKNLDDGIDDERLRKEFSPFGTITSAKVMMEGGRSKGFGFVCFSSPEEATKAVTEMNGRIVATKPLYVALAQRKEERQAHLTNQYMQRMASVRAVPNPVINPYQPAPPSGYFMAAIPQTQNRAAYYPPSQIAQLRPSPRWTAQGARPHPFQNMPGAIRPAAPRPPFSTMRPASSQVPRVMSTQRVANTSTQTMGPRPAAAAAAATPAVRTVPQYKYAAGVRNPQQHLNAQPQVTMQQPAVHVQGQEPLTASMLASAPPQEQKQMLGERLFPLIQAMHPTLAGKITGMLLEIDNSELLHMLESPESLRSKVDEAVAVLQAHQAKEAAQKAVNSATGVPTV
UUG fidelity: alters start codon recognition fidelity in yeast | S. cerevisiae UUG-firefly luciferase reporter, luminescence/redox ratio | activity score, % at 18.7 µM | AID 602363 | 350,000 tested, 0.13% active;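 active = replicate mean at a twofold rise or more, about +100% in these data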;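 also: firefly luciferase made from a UUG start codon reports start codon fidelity; reporter light over untreated wells divided by growth signal over untreated wells; some hits fall short of that in this replicate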
Rce1 inh: inhibitors of yeast Ras-converting enzyme | yeast membranes, quenched prenylated peptide cleavage fluorescence | calls only | 290,000 tested, 0.27% active;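 active = fall in fluorescence gain of 50% or more versus controls, with final raw signal at or below 3038400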;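 also: plate controls were neutral control wells for no effect and wells lacking membranes for full effect; tested at 10 µM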
MT1-MMP act inh: inhibitors of human MT1-MMP activation; HT1080 RFP-PRO-GFP cells, GFP/RFP ratio fluorescence, overnight; percent of plate control window, DMSO zero; AID 651647; P50281; GFP/RFP ratio change, % at 20 µM; 360,000 tested, 0.061% active;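 active = GFP/RFP ratio change of at least 30% with cell ATP level not reduced by more than half and red fluorescence within 50% of control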; also: strong numbers were not always called active
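Assay system: RFP-PRO-GFP reporter HT1080 cells; read-out basis: GFP/RFP fluorescence ratio; benchmarks: DMSO wells and RFP-L50D-GFP cells; doses: 20 µM single dose, 1% DMSO; schedule: overnight cell settling, then overnight compound exposure, 37 °C, 5% CO2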
CSC inhib: blocks cancer stem cells. AID 2717. cancer stem cell-like cells viability, luminescence. 300,000 tested, 1.1% active. inhibition, % at 7.5 µM;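 active = mean at 75% or more and at least half the replicates too; tested in HMLE shEcad cells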;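 also: 0% = median of negative and 100% = median of positive control wells; the first replicate is given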
eIF4H FP inh: inhibitors of RNA binding by human eIF4H; Q15056; eIF4H fluorescence polarization binding assay; inhibition, % at 35 µM; 290,000 tested, 0.94% active; AID 2012;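 active = 50% or more with normal probe brightness, or confirmed in later tests; about a fifth of its hits are not listed in these tables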;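 also: calls also rest on retests at 20 µM and on dose response follow-up; 0% = protein and probe with vehicle and 100% = probe without protein; strong numbers were not always called active; many hits fall short of the cut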
HIV Env fusion: inhibitors of HIV Env-mediated cell fusion | HeLa-JRFL Env/CEM21 cell fusion, luciferase | 360,000 tested, 1.1% active | inhibition, % at 12.3 µM;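 active = mean replicate inhibition score of at least 50 and every replicate individually at or above 50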;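 also: 0% = plate neutral controls and 100% = maraviroc near 300 nM; one replicate is shown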
eIF4H FP inh retest: also measured in eIF4H FP inh; calls as there; inhibition, %; compound at 20 µM; confirmation average;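 mean of two retest wells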
PABP FP inh retest: recorded beside PABP FP inh, whose call it bears; inhibition, %; compound at 20 µM; confirmation repeats;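 mean of two retest wells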
MT1-MMP act inh RFP: recorded beside MT1-MMP act inh, whose call it bears; RFP signal change, %; measured here: RFP expression control read;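 0 = vehicle wells; hits needed this value within 50% of zero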
Starred values were filed as active, the others as inactive; i = inactive; x = no result given; & = joins results of further samples. This is a subset, so the mix of outcomes need not match the whole.

SMILES | PABP FP inh | UUG fidelity | Rce1 inh | MT1-MMP act inh | MT1-MMP act inh RFP | CSC inhib | eIF4H FP inh | HIV Env fusion | others
CCOC(=O)C1CCN(C(=O)CSc2ccccc2)CC1 | 8.8 | 5.6 | i | -5.1 | -9.1 | -6.1 | -3.7 | 9.3
CC(C)NC(=O)NC(=O)COC(=O)Cc1ccsc1 | -6.2 | 3.9 | i | -0.8 | 5.6 | 5.7 | 1.6 | x
CSc1ccc(C(=O)N2CCc3ccc(NC(=O)c4ccccn4)cc3C2)cc1 | -2.0 | 2.9 | x | 4.4 | -6.5 | 13.6 | -9.4 | -15.1
COc1ccc(-c2cc3nc(-c4ccccc4)cc(N4CCC5(CC4)OCCO5)n3n2)cc1 | 7.0 | -14.0 | i | 4.3 | -4.4 | 33.9 | -2.6 | x
O=C(NCCCNC(=O)c1ccc(Cl)cc1Cl)c1ccccn1 | 2.3 | -1.1 | i | -5.2 | 1.3 | x | -18.0 | -4.3
Cc1oc(-c2ccccc2F)nc1CS(=O)(=O)CC(=O)NC1CCCC(C)C1C (configuration not stated) | -8.0 | -14.0 | i | -2.1 | 0.1 | -29.5 | 7.1 | 11.3
FC(F)(F)c1ccc(-c2n[nH]c(=S)o2)nc1 | 3.3 | x | i | -1.8 | 3.5 | 4.7 | -2.1 | 8.4
CCN(CC)S(=O)(=O)c1cccc(C(=O)N[C@H](C(=O)NNC(=O)c2ccccc2)C(C)C)c1 | 1.4 | -4.1 | i | -0.5 | 0.0 | -4.4 | -2.6 | 11.3
CCCCCOC(=O)C1=C(C)NC(=O)NC1c1ccccc1OCC (configuration not stated) | -3.5 | -15.2 | i | 0.1 | -6.4 | 16.7 | -4.6 | x
CCc1cc(=O)oc2c3c(cc(OCC(=O)Nc4cccnc4)c12)OC(C)(C)CC3 | 3.6 | -14.0 | i | 10.0 | -5.2 | -19.5 | 4.5 | x
Nc1ccn([C@@H]2O[C@H](C(=O)Nc3cc(C(F)(F)F)cc(C(F)(F)F)c3)[C@@H](O)[C@H]2O)c(=O)n1 | x | -3.8 | x | -1.0 | -3.1 | x | x | -1.9
Cc1cccc(C(=O)Nc2sc3c(c2C#N)CCCCC3)c1 | 0.9 | x | i | -1.2 | -3.3 | 41.8 | -3.5 | x
COC(=O)c1sc(S(=O)(=O)NCC(=O)O)c(C(=O)OC)c1C | 5.7 | -19.6 | i | 1.2 | 1.2 | -1.1 | -7.2 | -3.3
O=C(COC(=O)C1CC2CCCC(C1)C2=O)Nc1nc(-c2ccc(F)c(F)c2)cs1 (configuration not stated) | x | -24.0 | i | 6.9 | 1.8 | x | x | -7.3
O=P(c1ccc2c(c1)OCCO2)(N1CCOCC1)N1CCOCC1 | -2.5 | -14.5 | i | -2.1 | 1.1 | x | -0.8 | x
COc1ccc(CC(=S)N2CCOCC2)cc1OC | 1.1 | -15.6 | x | 13.2 | 1.1 | -11.8 | 4.8 | -42.8
COc1ccc(O)c(-c2cc(-c3ccc(F)cc3)n[nH]2)c1 | 4.4 | -12.2 | i | 11.0 | 4.3 | 51.3 | 3.2 | -54.5
CC1CCN(S(=O)(=O)c2ccc(S(=O)(=O)N3CCCC3)cc2)CC1 | -2.2 | -10.8 | i | 5.2 | 5.1 | -15.1 | 6.0 | -15.3
CCc1c(C(C)S(=O)(=O)c2ccccc2)[nH]c(=O)n1CC (configuration not stated) | -7.0 | -4.3 | i | 2.9 | 7.0 | -1.9 | 2.5 | -1.6
COc1ccc(S(=O)(=O)N(C)C[C@H]2OCCCC[C@H](C)Oc3ccc(N(C)C)cc3C(=O)N([C@H](C)CO)C[C@@H]2C)cc1 | x | 8.5&-0.4 | x | -1.8 | -1.6 | x | x | -25.1
Cc1ccccc1NC(=S)N(CCN(C)C)C(C)c1ccccn1 (configuration not stated) | 2.7 | -14.6 | i | -1.0 | 3.9 | -9.6 | 4.1 | -65.2
Cc1cccc(N2C(=O)CC(N3CCN(Cc4ccc(Cl)cc4)CC3)C2=O)c1 (configuration not stated) | -9.4 | 4.3 | i | 7.2 | -1.3 | -11.7 | -6.8 | x
CC(NC(=O)COC(=O)C12CC3CC(CC(Br)(C3)C1)C2)c1ccccc1 (configuration not stated) | x | -15.3 | x | -1.0 | 5.0 | -10.6 | x | x
COc1ccc(CC(=O)OCC(=O)NC(=O)Nc2ccccc2F)cc1 | x | -7.4 | x | -1.5 | -0.7 | x | x | 7.1
Cc1ccc(-c2cn3cccc(C)c3n2)cc1 | 6.7 | x | i | -3.9 | 0.6 | x | 4.9 | -45.0
COc1ccc(CN2C(=O)c3cccnc3C2=O)cc1S(=O)(=O)N1CCCCC1C (configuration not stated) | -0.1 | -22.2 | i | 0.1 | 1.4 | -10.2 | -12.9 | -3.0
COC(=O)c1ccc(CNC(=O)COC(=O)c2ccc(N(C)C)cc2)cc1 | 16.0 | x | i | 3.9 | 1.6 | -3.1 | -2.7 | -18.1
O=C(C1CCN(c2ncnc3c2nc2n3CCCCC2)CC1)N1CCN(c2cccc(Cl)c2)CC1 | -4.4 | -17.6 | i | -0.8 | -25.0 | 26.0 | 9.6 | 2.4
COCCNC(=O)c1cc2cc(Cl)cc(Cl)c2oc1=O | 17.4 | -14.7 | i | -10.3 | -2.1 | -2.3 | -3.3 | -16.2
COc1cccc(C=Nc2ccc(N3CCOCC3)cc2)c1O | -14.5 | -26.5 | i | 4.3 | 4.3 | -8.9 | -12.0 | -24.1
O=S(=O)(NC1CCN(Cc2ccccc2)CC1)c1cccc(S(=O)(=O)N2CCOCC2)c1 | 9.1 | -8.5 | i | 4.9 | 1.8 | 7.3 | -2.2 | -29.9
Cc1ccc2oc(/N=C(\N)NC(=O)C(C)(C)C)nc2c1 | -2.1 | -82.8 | i | 6.9 | 0.2 | -3.4 | -6.8 | 0.9
CS(=O)(=O)/C(C#N)=C\c1cnc(S(=O)(=O)c2ccccc2)s1 | -1.7 | x | i | x | x | 18.9 | -4.7 | x
CCCN(Cc1ccc(C)cc1)C(=O)c1ccc(CNS(=O)(=O)c2ccc(C(C)=O)cc2)cc1 | x | -7.1 | x | 5.1 | -10.3 | 10.7 | x | x
O=C(NCc1cccnc1)c1cccc2c1C(=O)N(C1CCCCC1)C2 | -0.8 | -19.4 | i | 3.5 | 3.5 | -12.1 | 7.6 | -16.0
Cc1cc2cc(CN(CCCO)S(=O)(=O)c3cccc4nsnc34)c(=O)[nH]c2cc1C | -6.1 | -13.7 | i | 4.9 | 2.3 | -6.2 | -4.9 | x
Cc1cc(N2C(=O)C3CC=CCC3C2=O)no1 (configuration not stated) | 7.4 | -22.9 | i | -2.3 | 2.7 | 2.9 | -5.9 | -14.3
CC(C)N1CCC(N2CCN(C/C=C/c3ccc(F)cc3)CC2CCO)CC1 (configuration not stated) | 0.1 | x | i | 6.8 | 7.5 | -19.5 | -5.6 | 17.1
COC/C=C/C1=CC2=CC(=O)C(C)(OC(=O)c3cnc4ccccc4n3)C(=O)C2=CN1C1CCCCC1 (configuration not stated) | 27.9 | x | i | x | x | -6.3 | 28.1 | x
COc1ccc(/C=N\NC(=O)c2cccc([N+](=O)[O-])c2)cc1Cn1cc([N+](=O)[O-])cn1 | 6.7 | x | i | x | x | -2.8 | 1.1 | -7.8

Brought forward from above: three compounds; new compounds follow.
SMILES | PABP FP inh | UUG fidelity | Rce1 inh | MT1-MMP act inh | MT1-MMP act inh RFP | CSC inhib | eIF4H FP inh | HIV Env fusion | others
CC(C)N1CCC(N2CCN(C/C=C/c3ccc(F)cc3)CC2CCO)CC1 (configuration not stated) | 0.1 | x | i | 6.8 | 7.5 | -19.5 | -5.6 | 17.1
COC/C=C/C1=CC2=CC(=O)C(C)(OC(=O)c3cnc4ccccc4n3)C(=O)C2=CN1C1CCCCC1 (configuration not stated) | 27.9 | x | i | x | x | -6.3 | 28.1 | x
COc1ccc(/C=N\NC(=O)c2cccc([N+](=O)[O-])c2)cc1Cn1cc([N+](=O)[O-])cn1 | 6.7 | x | i | x | x | -2.8 | 1.1 | -7.8
O=C1COc2ccc(C(=O)COC(=O)c3sc4ccccc4c3Cl)cc2N1 | -1.3 | -20.3 | i | -1.2 | 0.1 | 8.9 | -4.1 | 0.1
CN(CC(=O)NCc1ccccn1)S(=O)(=O)c1ccc(Cl)cc1 | -7.2 | -37.3 | i | 1.4 | 4.3 | 4.1 | 2.9 | x
COc1cccc(N2CCN(CC(=O)N3CCN(S(=O)(=O)c4ccc(Cl)cc4)CC3)CC2)c1 | x | -4.8 | x | 0.0 | -2.6 | x | x | 32.2
C=CCn1c(SCC2=C(C(=O)OCC)C(C)NC(=O)N2)nnc1C1CCCCC1 (configuration not stated) | -1.2 | 6.3 | i | 4.1 | 2.2 | -16.3 | -2.3 | -13.8
COc1nc(N(c2ccccc2)c2ccccc2)nc(-n2ccnc2)n1 | 7.6 | -24.4 | i | -18.2 | -10.2 | 12.0 | -1.2 | -15.6
CCc1nc2ccc(C(=O)Nc3cc(-c4ccccc4)ccc3OC)cn2c1N(CC)CCN(C)C | x | 0.5 | x | -5.9 | -4.5 | x | x | 5.0
CCOC(=O)N1CCN(S(=O)(=O)c2cc(Br)cc3c2N(C(C)=O)C(C)C3)CC1 (configuration not stated) | 3.4 | 0.5 | i | -1.2 | 1.5 | -18.5 | -9.4 | -4.7
CC(C)c1ccc(N(CC(=O)NC2CCCC2)C(=O)CCC(=O)Nc2nccs2)cc1 | 3.4 | -7.1 | i | -1.1 | -4.5 | -17.6 | -6.5 | 10.1
COc1ccccc1N1CCN(S(=O)(=O)c2cc(C)sc2C)CC1 | 5.6 | 8.1 | i | -3.8 | -1.2 | 16.6 | -5.2 | 43.4
CCOC(=O)c1nnc2cc(-c3ccccc3)nn2c1C | -5.2 | -1.8 | x | -1.8 | -4.1 | -7.1 | 1.1 | x
O=C(NCCNc1ccc(Cl)cc1[N+](=O)[O-])c1cccnc1 | 1.1 | 1.2 | i | 3.8 | -2.7 | 3.3 | -5.1 | 17.7
Cc1ccccc1-c1nc(CS(=O)(=O)CC(=O)NCCCN2CCOCC2)c(C)o1 | 8.7 | -3.1 | i | 0.4 | -2.1 | -6.0 | -1.8 | -3.2
COc1ccccc1-n1c(SCC(=O)NC(C)(C)C)nc(O)cc1=O | 13.4 | 12.2 | i | 2.9 | -2.2 | -10.2 | -6.6 | x
Cc1ccc(-n2nc3c(=O)n(CCCC(=O)NCc4cccc(Cl)c4)nc(C)c3c2C)cc1 | x | -5.3 | i | 2.1 | -8.6 | 7.9 | x | 39.8
COc1cccc2oc3ccc(C#Cc4ccccn4)cc3c(=O)c12 | -19.3 | -6.8 | i | -0.4 | 8.1 | 57.1 | 10.2 | -140.9
O=C(NCc1ccc2c(c1)OCO2)c1nc(Cn2cc([N+](=O)[O-])cn2)no1 | 1.8 | -4.3 | x | 1.2 | 4.0 | 6.3 | -5.6 | 8.7
Cc1c(NC(=S)NC(=O)c2cccc3ccccc23)cccc1C(=O)O | -9.3 | -23.8 | i | 2.8 | 2.8 | -3.5 | -9.6 | -5.3
O=C(CN(Cc1ccco1)C(=O)CNS(=O)(=O)c1ccccc1)NCc1ccccc1 | 2.0 | -1.6 | i | -1.4 | -1.4 | -3.0 | -2.7 | x
CC(=O)N1CCCc2cc(S(=O)(=O)N3CCCC(C(=O)NCc4ccccc4)C3)ccc21 (configuration not stated) | 4.4 | 20.0 | i | 3.8 | -9.9 | -4.1 | -9.3 | 1.3
O=C(N/N=C\C=C\c1ccc([N+](=O)[O-])o1)c1cccs1 | 52.7* | 0.0 | i | -7.5 | -1.2 | 10.2 | 99.7* | -25.5 | eIF4H FP inh retest=82.3*;PABP FP inh retest=107.5*

Compound activity deposited in PubChem by several laboratories.
